TRPML1 inh – human mucolipin-1 channel inhibition | Q9GZU1 | TRPML1-inducible cells, Ca2+ dye fluorescence, FDSS; stronger effect = lower value; inhibition of EC80 agonist-evoked calcium signal | activity change, negative = inhibition, % (test concentration not listed) | 390,000 tested, 0.02% active | AID 624415; in the data active means activity change below about -50%; inconclusive means about -30% to -50%; inactive means above about -30%;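 also: stimulus is agonist 54-4 at its EC80 concentration; % is scaled to controls: 0 for no effect and ±100 for the full control effect; compound concentration not given in the record; the text of the record puts the active cut at -80%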
Target sequence (Q9GZU1 whole entry, looked up): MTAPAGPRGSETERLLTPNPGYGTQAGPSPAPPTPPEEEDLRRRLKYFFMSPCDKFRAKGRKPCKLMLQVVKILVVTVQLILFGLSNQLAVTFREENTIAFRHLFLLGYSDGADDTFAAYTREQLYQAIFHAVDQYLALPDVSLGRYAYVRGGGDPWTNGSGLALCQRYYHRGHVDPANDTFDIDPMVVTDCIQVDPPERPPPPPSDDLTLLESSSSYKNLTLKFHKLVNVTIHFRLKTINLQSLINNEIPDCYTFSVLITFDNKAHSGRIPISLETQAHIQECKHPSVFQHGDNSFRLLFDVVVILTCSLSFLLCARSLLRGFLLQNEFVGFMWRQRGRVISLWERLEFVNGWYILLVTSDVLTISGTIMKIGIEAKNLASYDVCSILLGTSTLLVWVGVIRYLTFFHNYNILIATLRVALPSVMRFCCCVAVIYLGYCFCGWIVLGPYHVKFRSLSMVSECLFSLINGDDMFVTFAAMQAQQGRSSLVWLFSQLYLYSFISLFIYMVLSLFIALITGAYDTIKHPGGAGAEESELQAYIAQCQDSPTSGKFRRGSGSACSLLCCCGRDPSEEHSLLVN
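TRPML1-DL cells, Tet-induced overnight (~16 h, 37 °C) at 1,500 cells/well, were loaded with Ca8 no-wash dye plus quencher for 45-90 min at room temperature. Compounds were pinned during FDSS kinetic reading; agonist 54-4 at EC80 (4 uM final) then added.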
TRPML1 ag – agonists of human TRPML1 channel | Q9GZU1 | TRPML1-expressing cells, Ca2+ dye fluorescence, FDSS; host cell line not named in the record; reference of the full effect not given here | activation, % (no concentration beside the values) | 410,000 tested, 0.12% active | AID 624414; in the data active = activation above about 50%; inconclusive = about 30% to 50%; inactive = below about 30%; also: 0% is about no effect; the text of the record puts the active cut at 80%
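Agonist activity was taken from a 110 s kinetic Ca2+ dye read on the FDSS after pinning compounds onto TRPML1-DL cells. The cells were seeded at 1,500/well with Tet inducer, incubated about 16 h, then dye-loaded at room temperature.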
gsp antagonist – antagonists of gsp mutant (McCune-Albright syndrome) | gsp-mutant cells, cAMP HTRF, 30 min; control for the full effect not named in the record | Potency, µM (titrated, usually from 76.9 µM), inactives show at the highest dose activity change, negative = inhibition, hits mostly inhibitors | 340,000 tested, 0.4% active; active = falling curve of any shape with a large fitted effect; inconclusive = falling curve, mostly with a smaller effect; inactive = flat or rising curve; cell line not stated here;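 also: intracellular cAMP measured with PDE inhibitor Ro 20-1724 present during compound exposure; potency is read from the fitted curve at half-maximal effect; % is scaled to controls: 0 for no effect and ±100 for the full control effect; nearly all actives have a fitted effect of over 65% in size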
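Cells, 2000/well, grown 16–24 h in DMEM 10% FBS with 0.5 mg/ml G418, then compounds plus […] (300 uM addition stock), 30 min at 37C. cAMP read by HTRF (cAMP-d2 and anti-cAMP antibody-K in lysis buffer) after 30 min RT.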
ClpP mod – qHTS Assay for Activators of ClpP; Potency, µM (doses to about 57.5 µM), inactives show at the top dose activity change, negative = active; AID 651965, 2013; ATP-dependent Clp protease proteolytic subunit (Bacillus subtilis (strain 168)), P80244; purified B. subtilis ClpP, FRET peptide cleavage, 20 min; 340,000 tested, 1.9% active; active = well fitted falling curve with a large enough effect; inconclusive = small, poorly fitted or top-dose-only effect; inactive = no such curve, though single readings can be large or run the other way; also: potency is read from the fitted curve at half-maximal effect; the source files actives as falling curves though it sought activators and does not explain the sign; nearly all actives have a fitted effect of over 65% in size; many hits overshoot -100%
Target sequence (P80244 whole entry, looked up): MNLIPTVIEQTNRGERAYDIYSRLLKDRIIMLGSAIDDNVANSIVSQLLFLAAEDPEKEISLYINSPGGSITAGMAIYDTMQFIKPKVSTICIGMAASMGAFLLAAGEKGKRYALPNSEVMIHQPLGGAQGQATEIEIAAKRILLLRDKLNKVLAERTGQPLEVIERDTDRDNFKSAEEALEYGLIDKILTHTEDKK
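Buffer: 100 mM Tris/HCl pH8, 100 mM KCl, 0.05% low protease BSA, 2.5% glycerol, 0.01% Tween-20. ClpP 10 microg/mL final; 20 min RT; delta FRET normalized to ADEP and DMSO controls.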
gsp agonist – gsp mutant agonism; Potency, µM (doses to about 76.9 µM), inactives show at the highest dose activation (cAMP increase), actives largely listed as activators; gsp mutant cells, cAMP HTRF, 30 min; control for the full effect not named in the record; 340,000 tested, 0.13% active; active = well fitted activation curve with a large enough effect; inconclusive = small, poorly fitted or top-dose-only effect, or another doubt; inactive = no such curve, though single readings can be large or run the other way; cell line not stated here;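 also: phosphodiesterase inhibitor Ro 20-1724 added with compounds to block cAMP breakdown; potency is read from the fitted curve at half-maximal effect; nearly all actives have a fitted effect of over 60% in size; about a fifth of the inactives were tested at one dose only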
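Cells in DMEM/10% FBS with G418 were pretreated with compounds in DMSO plus […] (300 uM stock) for 30 min at 37C. cAMP was measured by HTRF (cAMP-d2 plus anti-cAMP antibody-K) after 30 min at room temperature.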
Menin MLL FP FL – inhibitors of human menin-MLL interaction, wild-type MLL peptide | 290,000 tested, under 10 active | FP activity change, % at 61.4 µM | Fluorescence polarization, fluorescein-MLL peptide displacement from menin; inconclusive = falling polarisation curve, or a change in total fluorescence; inactive = total fluorescence flat and polarisation flat or rising; no compound was filed as active; the % refers to the polarisation; negative = inhibition;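 also: % of control where 0% means no effect; inhibitors lower the polarisation; unlabelled MLL peptide was the positive control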
Numbers without * were called inactive; ? = inconclusive; . = not tested or not shown; [ ] = another dose, or the depositor's remark.

SMILES	TRPML1 inh	TRPML1 ag	gsp antagonist	ClpP mod	gsp agonist	Menin MLL FP FL
Cc1cc(F)ccc1S(=O)(=O)N1CCCOC1CNC(=O)C(=O)NC1CC1 (stereo unspecified)	7	-0.3	7%	-1.4%	-28%	.
OCCNCCCOc1ccc(Cl)cc1Br	-2	1.2	12%	1.7%	-27%	0.9
COc1ccccc1CNC(=O)CCN1C(=O)COc2ccccc21	1	-0.2	3%	1.6%	-65%[inhibitor]	0.8
COc1ccc(S(=O)(=O)N2CCN(C(=O)CCOc3ccccc3)CC2)cc1OC	-1	-0.9	3%	1.5%	5%	.
CN(CC(=O)Nc1ccccc1Cl)C(=O)CN1C(=O)NC(c2ccccc2)(c2ccccc2)C1=O	1	1.1	5%	-0.1%	-10%	.
COc1ccc(OC)c(CN2CCCC(C(=O)N3CCCCC3)C2)c1 (stereo unspecified)	7	0.8	4%	1.1%	0%	-2.1
CC(=O)/C(=N\Nc1cccc(Cl)c1)Sc1cccc2cccnc12	5	1.0	9%	-1.8%	7%[15.4 µM]	3.1
CCCCc1ccc(NC(=S)NCc2ccc(OC)cc2)cc1	31	0.6	-5%	-0.5%	5%	-2.0
CCc1ccc(C2=NN(C(=O)CCC(=O)O)C(c3cccs3)C2)cc1 (stereo unspecified)	-12	0.1	?	-17%	-12%	2.3
Cc1ccccc1NC(=S)NCc1cccs1	-2	-0.1	4%	-0.8%	-4%	2.7
CCOC(=O)c1oc2c(c1C)-c1nn(Cc3ccccc3Cl)cc1CC2	-22	2.4	.	?	.	.
CCCCN(CCCC)S(=O)(=O)c1ccc(NC(=O)c2c(-c3ccccc3)noc2C)cc1	42	3.8	.	-6.7%	.	.
Cc1ccc(C(C2=C(O)CC(C)(C)CC2=O)C2C(=O)CC(C)(C)CC2=O)s1 (stereo unspecified)	-11	0.4	-19%	0.3%	19%	4.9
CCOc1ccc(NC(=O)CC(=O)Nc2ccc(OCC)cc2)cc1	6	3.4	5%	-0.4%	?	-0.9
COc1ccc(OC)c(CNC(=O)C2CCC(=O)N2C(C)C)c1 (stereo unspecified)	18	2.2	9%	-1.0%	4%	-5.8
O=C(NC1CCCCCC1)C(=S)NCc1ccccc1	7	0.7	1%	0.4%	0%[15.4 µM]	-0.8
CC1CCN(c2cc(N3CCC(C)CC3)c([N+](=O)[O-])cc2/C=C(\C#N)c2nn(-c3ccccc3)c(N)c2C#N)CC1	-18	-0.4	5%	-0.8%	0%	-0.7
Cc1ccc2nc(SCC(=O)c3ccccc3)nc(=O)n2c1	-1	-0.6	-2%	.	40%[15.4 µM]	.
C/C(=N\Nc1ccc(C(=O)c2c(C)cc3ccccn23)cc1[N+](=O)[O-])c1ccc(O)cc1	-1	0.5	1%	-2.0%	6%	2.7
COc1cc([N+](=O)[O-])ccc1NC(=O)N1CCC2(CC1)Nc1ccccc1-n1cccc12	-25	-0.4	.	-2.5%	.	.
COc1ccc(-n2c(C)cc(C(=O)CN3CCC(C)CC3)c2C)cc1	27	-0.2	-4%	-0.3%	-3%	0.4
CC(C(=O)N1CCc2ccccc21)N1CCN(Cc2ccc(Cl)cc2)CC1 (stereo unspecified)	7	-0.5	5%	.	3%	-2.2
CC(=O)N1CC(C)Sc2ccc(S(=O)(=O)N3CCCCC3)cc21 (stereo unspecified)	-20	0.8	-1%	-0.9%	16%	5.8
Cc1ccc2nc(COc3cccc(NC(=O)c4cccc(Cl)c4)c3)cc(=O)n2c1	-2	0.0	.	?	.	.
O=C1COc2ccc(S(=O)(=O)N3CCCCCC3)cc2N1	-9	-0.6	7%	1.5%	9%	.
COc1cc(OC)c(N(C)C(=O)c2cn(C3CCCC3)c(=O)c3c2c2ccccc2n3C)cc1Cl	5	0.0	.	-24%	.	.
CC(OC(=O)c1cc[n+]([O-])cc1)C(=O)Nc1ccc(C(N)=O)cc1 (stereo unspecified)	-1	-0.1	11%	-1.5%	-30%[inhibitor]	.
Cc1nnc(SCC(=O)NCc2ccco2)n1Cc1ccccc1	12	-0.6	7%	-1.2%	0%	-1.1
COc1cccc(-n2c(-c3ccccc3F)nc3c(cnn3-c3ccc(C)cc3)c2=O)c1	3	3.6	.	?	.	.
CCc1noc(C)c1C(=O)Nc1nc(-c2ccc(OC)cc2OC)cs1	62	0.2	-10%	.	-1%[15.4 µM]	.
CN(C)S(=O)(=O)c1cccc(NC(=O)c2cc(-c3cccs3)nn2-c2cccc(Cl)c2)c1	-16	1.3	-1%	-22%	-44%	1.3
CC(=O)Nc1ccc(S(=O)(=O)Oc2ccc(/C=N/NC(=O)c3ccc(Cl)cc3)cc2)cc1	24	3.3	-1%	-10%	19%	1.9
COc1ccc2cc3cc(C(=O)NCc4ccco4)oc3nc2c1	7	0.5	7%	96%	14%	2.1
COc1ccc(Cc2nn3c(-c4cc(OC)c(OC)c(OC)c4)nnc3s2)cc1	11	0.5	4%	-2.4%	12%	3.6
N#C/C(=C/c1cc[nH]c1)C(N)=S	-3	0.4	-18%	0.2%	1%[15.4 µM]	0.0
Oc1ccc(C2Nc3cccc4cccc(c34)N2)c(O)c1	-19	-0.1	-9%	32µM*	-5%	8.1
NS(=O)(=O)Nc1ccccc1Br	27	0.2	.	.	.	1.9
CC(C)CCNC(=O)NC(=O)COc1c(F)c(F)cc(F)c1F	14	1.8	2%	1.1%	14%	-0.9
COc1ccccc1NS(=O)(=O)c1ccc(C)c(NS(=O)(=O)c2cc(NC(C)=O)ccc2OC)c1	8	-0.8	-20%	-1.2%	-20%	.
COc1ccccc1-n1cnnc1SCC(=O)Nc1cccnc1Cl	-24	-0.2	2%	-1.8%	1%	-3.9
Cc1cccc(SCC(=O)Nc2ccccc2[N+](=O)[O-])c1	38	2.0	-9%	-0.8%	-1%	0.7
Cc1nc(-c2ccc(Br)cc2)ccc1C(=O)O	-10	-0.4	31%[activator]	5.9%	?	0.0
Cc1cc(C(=O)N2CCN(c3ccc([N+](=O)[O-])cc3)CC2)co1	28	1.3	-16%	-1.1%	25%	3.9
COc1cccc(-c2nc(CS(=O)(=O)CC(=O)NCc3ccccc3)c(C)o2)c1	-10	0.6	-13%	-8.2%	?	2.0
CS(=O)(=O)c1ccc(Cl)c(NC(=O)COC(=O)CNC(=O)c2ccccc2)c1	8	-0.3	-15%	.	12%[15.4 µM]	5.4
COC(=O)C1=C(C)N(Cc2ccccc2)C(=NCc2cccc(C(F)(F)F)c2)N[C@H]1c1cccc(C(F)(F)F)c1	8	1.0	4%	-12%	.	3.8
Cc1ccc(NS(=O)(=O)c2ccc3c(c2)n(C)c(=O)n3C)cc1	.	.	4%	0.6%	20%	-2.9
O=C(NCc1ccc2c(c1)OCO2)c1ccc(-c2ccc(Cl)cc2)o1	5	2.1	?	-27%	1%	1.9
Cc1ccc(Cl)cc1NC(=O)Cn1cc(S(=O)(=O)Cc2ccccc2Cl)c2ccccc21	16	-0.1	.	-2.7%	.	.
CCN(CC(=O)NC1CC1)S(=O)(=O)c1ccc(OC)cc1	-4	1.2	9%	1.6%	14%	.
CS(=O)(=O)c1ccc(C(=O)NC2CCCc3ccccc32)cc1 (stereo unspecified)	-15	-0.9	5%	-0.9%	-5%[15.4 µM]	3.6
Cc1ccc(CNC(=O)Cn2c(=O)n(-c3ccccc3)c(=O)c3c2c2cc(C)ccc2n3C)cc1	23	-0.4	.	3.8%	.	.
COc1ccc(-c2nnc(SCC(=O)NCc3ccco3)o2)cc1	10	-0.2	5%	-0.9%	-57%[inhibitor]	3.4
Cc1ccc2nc(NCCCO)[nH]c2c1	2	0.2	5%	-0.9%	-10%[15.4 µM]	.
Cc1[nH]c2ccc(C(=O)OCC(=O)Nc3cccc(S(N)(=O)=O)c3)cc2c1C	10	-1.3	-3%	-11%	-3%	.
Cc1nc2c(-c3ccccc3)c(C)nn2c(C)c1CCC(=O)NCc1ccc(Cl)cc1	10	-1.0	.	2.3%	.	.
Cc1ccccc1OCCC(=O)Nc1c(C)n(C)n(-c2ccccc2)c1=O	4	0.6	10%	-1.2%	1%	-0.8
CCOC(=O)c1ccc(Nc2sc(C(=O)c3cccc([N+](=O)[O-])c3)c(N)c2C#N)cc1	5	0.2	-1%	-0.6%	-38%[inhibitor]	-0.7
Cc1ccc(-c2nc(C#N)c(N3CCC(C(N)=O)CC3)o2)cc1	17	0.3	-9%	.	10%	-1.0
COc1cc(/C=N/N=C(\N)c2nonc2N)cc(OC)c1O	12	1.0	-6%	.	-32%[15.4 µM]	2.3

Continuation.
SMILES	TRPML1 inh	TRPML1 ag	gsp antagonist	ClpP mod	gsp agonist	Menin MLL FP FL
O=c1cc(Cl)[nH]n(-c2ccccc2)c1=O	-8	0.0	10%	-0.8%	-14%	1.4
COc1ccccc1NC(=S)NC1CCCCC1	10	0.0	1%	-1.2%	20µM*	11
COc1ccc(CCNC(=O)c2cc3c(=O)n4ccccc4nc3n(CCN3CCOCC3)c2=N)cc1	7	-1.2	-8%	3.4%	25%	3.5
COc1ccccc1/C=C/C(=O)NC(=S)NCC1CCCO1 (stereo unspecified)	-27	1.2	-9%	-7.3%	2%[15.4 µM]	1.3
CCOC(=O)C1CCCN(C2CC(=O)N(c3cccc(C)c3)C2=O)C1 (stereo unspecified)	3	0.7	5%	0.1%	17%	3.8
CCOC(=O)C(C)Sc1nc(N)c(NC(=O)c2ccc(OC)c(OC)c2)c(=O)[nH]1 (stereo unspecified)	3	-0.1	7%	-1.6%	2%	-0.7
CO/N=C/C(=N\Nc1ccc(OC)cc1)C(=O)c1ccc(OC)cc1	14	2.1	3%	-3.6%	4%	5.8
COc1ccc(CCNC(=O)C2CC(c3ccccc3C(F)(F)F)=NO2)cc1 (stereo unspecified)	-5	0.3	-5%	0.3%	29%	3.4
COc1cc(OC)cc(-c2nn[nH]n2)c1	8	-1.3	2%	-1.6%	20%[15.4 µM]	3.6
CCC(C)NC(=O)c1ccc2c(c1)nc1n2CCCCC1 (stereo unspecified)	-20	0.4	.	-3.1%	.	.
O=C(Cc1c(Cl)cccc1Cl)OCC(=O)N1CCOCC1	7	0.1	-2%	-1.0%	?	.

In the list so far, three have bromine.
SMILES	TRPML1 inh	TRPML1 ag	gsp antagonist	ClpP mod	gsp agonist	Menin MLL FP FL
OCCNCCCOc1ccc(Cl)cc1Br	-2	1.2	12%	1.7%	-27%	0.9
NS(=O)(=O)Nc1ccccc1Br	27	0.2	.	.	.	1.9
Cc1nc(-c2ccc(Br)cc2)ccc1C(=O)O	-10	-0.4	31%[activator]	5.9%	?	0.0

Rows were taken by chance; any-hit rate near 2.1%.
